DUX4 txn inh = inhibitors of DUX4-driven ZSCAN4 reporter expression, primary screen, 293T cells, Gaussia and Italica luciferase. 293T-iDUX4 ZSCAN4-Gaussia luciferase reporter, 24 h; hits give low values. activity change, negative = inhibition, % (concentration not given with the values). 0.8% of 37,000 active. AID 1224904, 2016;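 active = -10% or lower and over 25 points stronger than a control reporter; inconclusive = -10% or lower with a smaller gap; inactive = above -10%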;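 note: 0% = median of neutral control wells and -100% = median of positive control wells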
DUX4 txn inh difference = second read-out of DUX4 txn inh, no call of its own (marks repeat the call); Gaussia minus Italica difference, %; measured here: selective DUX4 reporter inhibition;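 worked out from the two reporters; negative = selective loss of the DUX4 reporter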
DUX4 txn inh control = also measured in DUX4 txn inh; calls as there; activity change, negative = inhibition, %; measured here: Italica tet-on control reporter;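 0 = neutral control and -100 = positive control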
An asterisk follows results filed as active; ? = inconclusive; · = not tested or not shown; & = joins results of further samples.

cpd | compound | DUX4 txn inh | DUX4 txn inh difference | DUX4 txn inh control
1 | O=C(C[C@H]1C[C@H]2c3cc(NS(=O)(=O)c4ccc(F)cc4)ccc3O[C@H]2[C@H](CO)O1)N1CCCCC1 | ? | · | ·
2 | C[C@H](CO)N1C[C@H](C)[C@@H](CN(C)C(=O)C2CCC2)Oc2ncc(C#Cc3ccccc3F)cc2C1=O | -2 | 2 | -3.6
3 | C/C=C/c1ccc2c(c1)O[C@H](CN(C)C(=O)c1cccc(F)c1)[C@H](C)CN([C@H](C)CO)S2(=O)=O | 1 | 2 | -1.5
4 | CCC(=O)N1CC2(C1)CN(CC1CCOCC1)[C@@H](CO)c1c2c2ccc(OC)cc2n1C | 19 | 16 | 3.6
5 | CN(C)CC#Cc1ccc([C@H]2[C@@H](CO)N3C(=O)CN(C(=O)c4cccc(F)c4)C[C@H]23)cc1 | 5 | 2 | 3.0
6 | O=C(c1ccccn1)N1C[C@H]2[C@@H](c3ccccc31)[C@H](CO)N2C(=O)C1CCCCC1 | -1 | -1 | 0.0
7 | C[C@H](CO)N1C[C@H](C)[C@@H](CN(C)CC2CCCCC2)Oc2ccc(NC(=O)Cn3cnnn3)cc2CC1=O | -2 | 1 | -3.2
8 | CN1C(=O)c2cc(NS(=O)(=O)c3ccc(Cl)cc3)ccc2OC[C@H]2O[C@H](CC(=O)O)CC[C@@H]21 | -5 | -3 | -1.9
9 | COCC(=O)Nc1ccc2c(c1)C(=O)N(C)C[C@H](OC)[C@H](C)CN(Cc1cncnc1)[C@@H](C)CO2 | 5 | 0 | 5.1
10 | COc1ccccc1-c1ccc([C@H]2[C@@H](CO)N(C(C)=O)C23CN(C(C)=O)C3)cc1 | 0 | 5 | -5.0
11 | Cc1noc(C)c1S(=O)(=O)N(C)C[C@@H]1OCCCC[C@@H](C)Oc2ccc(NC(=O)Nc3cccc4ccccc34)cc2C(=O)N([C@@H](C)CO)C[C@H]1C | 0 | 0 | -0.2
12 | C[C@H]1CN([C@@H](C)CO)S(=O)(=O)c2ccc(C3=CCCC3)cc2O[C@@H]1CN(C)C(=O)c1ccccn1 | 2 | 5 | -2.3
13 | Cc1noc(C)c1S(=O)(=O)N(C)C[C@@H]1OCc2cn(nn2)CCCC(=O)N([C@H](C)CO)C[C@@H]1C | 2 | 0 | 2.3
14 | COc1ccc2c3c(n(C)c2c1)[C@@H](CO)NCC31CCN(C(=O)c2cccc(F)c2)CC1 | -3 | -3 | -0.2
15 | C[C@@H]1CN([C@H](C)CO)C(=O)CCCn2cc(nn2)CO[C@H]1CN(C)C(=O)Nc1ccccc1 | -5 | -1 | -3.9
16 | CCC(=O)N1[C@H](CO)[C@@H]2c3ccccc3N(C(=O)Nc3ccc(Cl)cc3)C[C@@H]21 | 0 | -2 | 2.4
17 | COc1ccc(S(=O)(=O)Nc2ccc3c(c2)C(=O)N([C@@H](C)CO)C[C@H](C)[C@@H](CN(C)S(=O)(=O)c2ccc(Cl)cc2)OCCCC[C@H](C)O3)cc1 | 0 | 1 | -0.5
18 | C[C@@H](NC(=O)C[C@@H]1CC[C@@H]2[C@H](COC[C@@H](O)CN2C(=O)Nc2cccc(Cl)c2)O1)c1ccccc1 | -4 | -2 | -2.1
19 | CCc1csc(N2[C@@H](C#N)[C@@H](c3ccccc3C3=CCCC3)[C@@H]2CO)n1 | -3 | 7 | -11
20 | COc1ccccc1NC(=O)N(C)C[C@@H]1OCc2ccccc2-c2ccccc2C(=O)N([C@H](C)CO)C[C@H]1C | 26 | 22 | 4.6
21 | COc1cccc(-c2ccc(C3[C@H]4CNC[C@@H]3N4C(=O)Nc3cc(F)ccc3F)cc2)c1 (stereo partly drawn) | 15&6 | 9&5 | 5.8&0.2
22 | COc1ccc2c3c([nH]c2c1)[C@@H](CO)NCC31CN(Cc2cc(F)ccc2F)C1 | 3 | 12 | -9.1
23 | COc1ccc(-c2ccccc2[C@H]2[C@@H](C#N)N(C(=O)C3CC3)[C@@H]2CO)cc1 | -4 | -17 | 13
24 | CC(=O)NC[C@H]1[C@H](c2ccccc2)[C@H](CO)N1C(=O)Cc1cccnc1 | 2 | 2 | -0.2
25 | CC(C)NC(=O)N1C[C@H]2[C@@H](c3ccccc31)[C@@H](CO)N2Cc1ccc(Cl)cc1 | 3 | 4 | -1.2
26 | O=C(Nc1ccccc1)N1CC(=O)N2[C@H](CO)[C@@H](c3ccc(C#CC4CCCCC4)cc3)[C@H]2C1 | 10 | 17 | -7.5
27 | COc1cccc(C(=O)Nc2ccc3c(c2)C(=O)N(C)[C@@H]2CC[C@@H](CC(=O)NCCCN4CCOCC4)O[C@H]2CO3)c1 | 3 | 3 | -0.1
28 | N#C[C@H]1[C@@H](c2ccccc2)[C@@H](CO)N1S(=O)(=O)c1ccc(F)cc1 | -2 | -3 | 0.2
29 | O=C(C1CCOCC1)N1CC(=O)N2[C@@H](CO)[C@H](c3ccc(C#CCc4ccccc4)cc3)[C@@H]2C1 | 2 | -22 | 24
30 | CCCNC(=O)[C@H]1[C@H](CO)[C@H]2Cn3c(ccc(-c4ccccc4F)c3=O)[C@H]2N1CCC | -3 | 2 | -5.9
31 | CN(C)C(=O)c1cccc(-c2ccc3c(c2)[C@H]2[C@H](CCN2C(=O)c2ccncc2)[C@@H](CO)N3C)c1 | 17 | 6 | 11
32 | CCCC#Cc1cnc2c(c1)C(=O)N([C@H](C)CO)C[C@H](C)[C@@H](CN(C)S(=O)(=O)c1cccc(OC)c1)O2 | -1 | -1 | -0.3
33 | C[C@H](CO)N1C[C@H](C)[C@H](CN(C)S(C)(=O)=O)Oc2ccc(NC(=O)Nc3ccc(F)cc3)cc2CC1=O | 0 | 2 | -2.3
34 | COCC(=O)N1CC2(CCN(Cc3cncnc3)CC2)c2c(n(C)c3cc(OC)ccc23)[C@H]1CO | 32 | 14 | 19
35 | CO[C@H]1CN(C)C(=O)c2cc(NS(C)(=O)=O)ccc2OC[C@H](C)N(C(=O)NC(C)C)C[C@@H]1C | -3 | 1 | -4.5
36 | CO[C@H]1CN(C)C(=O)c2cc(NS(=O)(=O)CC(F)(F)F)ccc2OC[C@H](C)NC[C@@H]1C | -3 | -8 | 4.6
37 | CS(=O)(=O)N1[C@@H]2c3ccc(C4=CCCCC4)c(=O)n3C[C@H]1[C@H](CO)[C@H]2C(=O)N1CCOCC1 | -4 | -10 | 5.5
38 | CC(=O)N1CC(=O)N2[C@H](CO)[C@@H](c3ccc(-c4cccc(C(=O)N(C)C)c4)cc3)[C@H]2C1 | 10 | -1 | 11
39 | COc1cc(CN2[C@@H]3CNC[C@H]2C3c2ccc(-c3ccc(C)cc3)cc2)cc(OC)c1 (stereo partly drawn) | 13 | 14 | -0.9
40 | O=C(c1cnccn1)N1CC(=O)N2[C@@H](CO)[C@@H](c3ccc(C#CCC4CCCC4)cc3)[C@@H]2C1 | -5 | 4 | -9.0
41 | CCC(=O)N1CCCCN2[C@@H](CO)[C@H](c3ccc(C#Cc4ccccc4)cc3)[C@@H]2C1 | 11 | 6 | 4.6
42 | C[C@H](CO)N1C[C@H](C)[C@@H](CN(C)C(=O)NC2CCCCC2)Oc2c(cccc2N(C)C)C1=O | 4 | -1 | 4.4
43 | CCC(=O)Nc1ccc2c(c1)C(=O)N(C)C[C@@H](OC)[C@@H](C)CN(C(=O)Cc1cccnc1)[C@H](C)CO2 | 0 | -1 | 1.4
44 | CCC(=O)NC[C@@H]1[C@@H](c2ccccc2)[C@@H](CO)N1C(=O)C1CC1 | -7 | 3 | -9.5
45 | CCCNC(=O)NC[C@@H]1[C@H](c2ccc(C3=CCCC3)cc2)[C@H](CO)N1C(=O)CC | -2 | 0 | -2.2
46 | O=C([C@@H]1[C@@H](CO)[C@@H]2Cn3c(ccc(-c4cccnc4)c3=O)[C@@H]2N1CCC(F)(F)F)N1CCOCC1 | -1 | -3 | 1.7
47 | CN(C)CC(=O)Nc1ccc2c(c1)[C@H]1C[C@@H](CC(=O)NCc3ccccn3)O[C@H](CO)[C@H]1O2 | 2 | 0 | 1.8
48 | COc1ccc(-c2ccc([C@H]3[C@@H](CO)N(C(=O)C4CC4)[C@H]3C#N)cc2)cc1 | -1 | -1 | -0.5

Structures from the list above that contain a CF3 group (2):
cpd | compound | DUX4 txn inh | DUX4 txn inh difference | DUX4 txn inh control
36 | CO[C@H]1CN(C)C(=O)c2cc(NS(=O)(=O)CC(F)(F)F)ccc2OC[C@H](C)NC[C@@H]1C | -3 | -8 | 4.6
46 | O=C([C@@H]1[C@@H](CO)[C@@H]2Cn3c(ccc(-c4cccnc4)c3=O)[C@@H]2N1CCC(F)(F)F)N1CCOCC1 | -1 | -3 | 1.7

Following part:
cpd | compound | DUX4 txn inh | DUX4 txn inh difference | DUX4 txn inh control
49 | Cc1ccc(S(=O)(=O)N(C)C[C@@H]2OCCCC[C@@H](C)Oc3ccc(NC(=O)c4ccncc4)cc3C(=O)N([C@H](C)CO)C[C@@H]2C)cc1 | 8 | 18 | -10
50 | C[C@@H]1CN([C@@H](C)CO)C(=O)c2cc(C#CC3CCCCC3)cnc2O[C@@H]1CN(C)S(=O)(=O)c1ccccc1 | 2 | 3 | -0.3
51 | C[C@H](CO)N1C[C@H](C)[C@H](CN(C)Cc2ccc(C(F)(F)F)cc2)OCCCC[C@H](C)Oc2ccc(NC(=O)Nc3cccc4ccccc34)cc2C1=O | 2 | 0 | 1.1
52 | Cc1noc(C)c1S(=O)(=O)N(C)C[C@H]1Oc2ccc(NC(=O)Nc3ccc4c(c3)OCO4)cc2C(=O)N([C@@H](C)CO)C[C@H]1C | 3 | 2 | 0.8
53 | O=C(C1CCC1)N1CC[C@@H]2[C@@H](CO)Nc3ccc(C#Cc4cccc(F)c4)cc3[C@@H]21 | 7 | 3 | 3.9
54 | CN1c2ccc(-c3ccc(F)cc3)cc2[C@H]2[C@H](CCN2C(=O)C2CCOCC2)[C@H]1CO | 7 | 6 | 0.8
55 | CCOC(=O)c1cc2c(c(-c3cccc(Br)c3)n1)[C@H](CCO)N(C(=O)NC(C)C)C2 | -4 | -2 | -1.5
56 | CCC(=O)N1[C@@H]2CN(C(=O)c3ccccc3F)c3ccccc3[C@@H]2[C@@H]1CO | 0 | -2 | 2.1
57 | O=C(C[C@@H]1CC[C@H]2[C@@H](COC[C@H](O)CN2C(=O)Nc2ccc(C(F)(F)F)cc2)O1)NCC1CCCCC1 | ? | · | ·
58 | O=C(C[C@H]1CC[C@H]2[C@@H](COC[C@H](O)CN2C(=O)Nc2ccccc2)O1)NCCc1ccncc1 | 17 | 15 | 2.0
59 | COCC(=O)N1[C@H](C#N)[C@H](c2ccccc2-c2ccccc2)[C@@H]1CO | 18 | 4 | 14
60 | CC(C)C(=O)Nc1ccc2c(c1)C(=O)N(C)[C@H]1CC[C@@H](CC(=O)NCCc3ccccc3)O[C@H]1CO2 | -4 | -3 | -0.9
61 | N#C[C@H]1[C@H](c2ccccc2-c2cccc(F)c2)[C@H](CO)N1C(=O)C1CC1 | 10 | 2 | 8.6
62 | Cc1ccc(S(=O)(=O)N(C)C[C@@H]2OCc3ccccc3-c3ccccc3C(=O)N([C@H](C)CO)C[C@H]2C)cc1 | 0 | 0 | -0.1
63 | CO[C@H]1CN(C)C(=O)c2cc(NC(=O)C3CC3)ccc2OC[C@H](C)N(C(=O)NC(C)C)C[C@@H]1C | 6 | 3 | 3.0
64 | O=C(C1CCCCC1)N1CC2(C1)[C@@H](c1ccccc1)[C@@H](CO)N2Cc1nccs1 | 5 | 4 | 0.1

Part of the list above in a different format:
Second line of a record: DUX4 txn inh	DUX4 txn inh difference	DUX4 txn inh control
29. O=C(C1CCOCC1)N1CC(=O)N2[C@@H](CO)[C@H](c3ccc(C#CCc4ccccc4)cc3)[C@@H]2C1
→ 2	-22	24
30. CCCNC(=O)[C@H]1[C@H](CO)[C@H]2Cn3c(ccc(-c4ccccc4F)c3=O)[C@H]2N1CCC
→ -3	2	-5.9
31. CN(C)C(=O)c1cccc(-c2ccc3c(c2)[C@H]2[C@H](CCN2C(=O)c2ccncc2)[C@@H](CO)N3C)c1
→ 17	6	11

Next entries
cpd | compound | DUX4 txn inh | DUX4 txn inh difference | DUX4 txn inh control
65 | CC(=O)N(C)C[C@H]1Oc2cc(C#Cc3ccc(F)cc3)ccc2S(=O)(=O)N([C@H](C)CO)C[C@H]1C | -1 | 2 | -2.8
66 | C[C@H]1CN([C@@H](C)CO)C(=O)CCCn2nncc2CO[C@@H]1CN(C)C(=O)Nc1cccc2ccccc12 | -2 | -5 | 2.5
67 | N#C[C@@H]1[C@@H](c2ccc(-c3cccc(F)c3)cc2)[C@H](CO)N1C(=O)c1cccnc1 | 1 | 1 | 0.0
68 | Cc1noc(C)c1NC(=O)N(C)C[C@H]1Oc2ccc(NC(=O)Cc3cn(C)c4ccccc34)cc2CC(=O)N([C@@H](C)CO)C[C@H]1C | 0 | 5 | -5.4
69 | Cc1ccc(-c2ccc(C3[C@H]4CNC[C@@H]3N4S(=O)(=O)c3ccccc3)cc2)cc1 (stereo partly drawn) | 9&9 | -14&9 | 24&-0.6
70 | O=C(N[C@@H]1CC[C@H](CCn2cc(-c3ccccn3)nn2)O[C@H]1CO)c1ccncc1 | 2 | 2 | -0.6
71 | C[C@H](CO)N1C[C@H](C)[C@H](CN(C)S(=O)(=O)c2cccs2)OCCCC[C@H](C)Oc2ccc(NC(=O)c3ccccc3)cc2C1=O | 3 | 4 | -0.5
72 | COc1cccc(S(=O)(=O)N2[C@@H]3CNC[C@H]2C3c2ccc(/C=C/c3ccccc3)cc2)c1 (stereo partly drawn) | 10&6 | -3&5 | 13&1.2
73 | C[C@@H]1CN([C@H](C)CO)C(=O)CCCn2cc(nn2)CO[C@H]1CN(C)Cc1ccc2cccnc2c1 | 3 | 4 | -1.1

Screening data as filed in PubChem BioAssay.

This is a subset; rates above refer to the full screens.
